VDR inhibitor: Inhibitors of the vitamin D receptor (VDR): qHTS | Vitamin D3 receptor (Homo sapiens), P11473 | VDR-SRC2-3 peptide fluorescence polarization, 2 h | Potency, µM, inactives show max response, negative = inhibition, usual class: inhibitors | 400,000 tested, 0.93% active | AID 504847, 2011; active = well fitted inhibition curve with a large enough effect; inconclusive = small, poorly fitted or top-dose-only effect, or another doubt; inactive = no such curve, though single readings can be large or run the other way; note: series mostly up to about 120 µM
Target sequence (P11473 whole entry, looked up): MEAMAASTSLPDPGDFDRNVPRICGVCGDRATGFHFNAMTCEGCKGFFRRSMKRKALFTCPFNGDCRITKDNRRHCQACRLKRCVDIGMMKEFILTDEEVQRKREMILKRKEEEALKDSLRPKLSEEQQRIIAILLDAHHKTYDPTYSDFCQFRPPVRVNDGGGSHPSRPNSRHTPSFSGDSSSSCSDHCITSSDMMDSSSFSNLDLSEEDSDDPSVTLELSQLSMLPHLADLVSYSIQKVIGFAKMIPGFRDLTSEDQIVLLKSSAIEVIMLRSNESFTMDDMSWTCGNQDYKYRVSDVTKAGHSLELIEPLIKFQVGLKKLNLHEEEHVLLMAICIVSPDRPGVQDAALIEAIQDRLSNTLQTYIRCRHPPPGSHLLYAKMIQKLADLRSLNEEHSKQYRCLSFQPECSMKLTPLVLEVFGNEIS
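Two reagent solutions held at 4 deg C in the dark were dispensed, compounds pinned at 23 nl, and the mixture incubated 2 h at room temperature. Read-out: fluorescence polarization of VDR–SRC2-3 peptide binding.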
Numbers without * were called inactive; ? = inconclusive; & = joins results of further samples. % is set by controls: 0 for no effect and ±100 for the full control effect; potency is the fitted concentration of half-maximal effect. Only part of the results is shown (hit frequency here may not be typical).

Preview, four compounds:
SMILES,VDR inhibitor
O=C(N/N=C/c1ccc(Cl)cc1)c1n[nH]c2c1CCCC2,5%
CN(Cc1ccccc1)C(=O)CCn1c(=O)oc2ccccc21,-17%
Cc1noc(C)c1S(=O)(=O)N1CCCC(C(=O)N2CCC(C)CC2)C1 (configuration not stated),-23%
O=C(CN1C(=O)C(=O)c2ccccc21)OCN1C(=O)c2ccccc2C1=O,-27%

All compounds of this part (from the top)
SMILES,VDR inhibitor
O=C(N/N=C/c1ccc(Cl)cc1)c1n[nH]c2c1CCCC2,5%
CN(Cc1ccccc1)C(=O)CCn1c(=O)oc2ccccc21,-17%
Cc1noc(C)c1S(=O)(=O)N1CCCC(C(=O)N2CCC(C)CC2)C1 (configuration not stated),-23%
O=C(CN1C(=O)C(=O)c2ccccc21)OCN1C(=O)c2ccccc2C1=O,-27%
Cc1c(Cl)cccc1NC(=O)C1CCCN(C(=O)c2cnn(-c3ccccc3)c2-n2cccc2)C1 (configuration not stated),10%
Clc1cccc(OCCOCCN2CCNCC2)c1Cl,-8%
Cc1ccc(C(=O)Oc2ccc(N3C(=O)CCC3=O)c(C)c2)cc1,-29%
O=C(Cc1ccc(Cl)cc1)NC(=S)Nc1ccccc1N1CCOCC1,-3%
O=C(Nc1ccccc1)C1C2/C=C\CCCCC21 (configuration not stated),-12%
COc1ccccc1N1CCN(C(=O)Cn2c(=O)[nH]c3ccsc3c2=O)CC1,8%
COc1ccc(/C=N/NC(=O)c2cc(-c3cccc(C)c3)nc3ccccc23)cc1O,-4%
CNc1c(NS(=O)(=O)c2ccc(Cl)cc2)c(=O)oc2ccccc12,-3%
O=C1C(=Cc2cccs2)Oc2ccccc21,-9%
Cc1ccc(Cl)cc1NC(=O)N1CCC(CN2CCCCCC2)CC1,4%
CC(=O)OC(C(=O)NC1CCCCC1)c1ccc(Cl)cc1 (configuration not stated),-5%
CCOC(=O)N1CCN(C(=O)c2ccc3c(c2)NC(=O)/C(=C\c2cccc(C)c2)S3)CC1,2%
Cc1ccc(C)c(NC(=O)Nn2cnnc2)c1,0%
CC1CC(C)CN(CCCNC(=O)CN2C(=O)c3cccnc3Oc3ccccc32)C1 (configuration not stated),8%
O=C(NNC(=O)c1ccc(O)c(Cl)c1)c1cccc(S(=O)(=O)N2CCOCC2)c1,-1%
c1ccc(CCn2nnnc2C(c2cccs2)N2CCN(Cc3ccc4c(c3)OCO4)CC2)cc1 (configuration not stated),6%
COc1ccccc1-c1nnc(SCC(=O)N2CCOCC2)n1-c1ccccc1,-24%
Cc1ccnc(N2CCC(C(=O)Nc3ccc4c(c3)OCO4)CC2)n1,5%
COc1ccc(NC(=O)Cn2c(=O)n(-c3ccc(Cl)cc3)c(=O)c3c(C)c(C(=O)N(C)C)sc32)cc1Cl,17%
COc1cc(/C=N/NC(=O)c2cnccn2)ccc1O,-19%
N#Cc1ccc2ccn(CC(=O)NC3CCCCC3)c2c1,10%
Cc1nc2ccccn2c1C(=O)CSc1ccc(Cl)cc1Cl,-7%
Cc1c(NC(=O)/C=C/c2cccs2)c(=O)n(-c2ccccc2)n1C,-2%
N#CC(C(=O)O)=C1CCCC1,5%
CC(C)(O)C1CC[C@@]2(C)C3CCC4[C@@]5(C)CCCC(C)(C)C5C(O)C[C@]4(C)[C@]3(C)CC[C@@H]12 (some centres not stated),1%
CCn1c(=O)c2cc(C(=O)Nc3cc(C)c(Cl)cc3OC)sc2c2ccccc21,-20%
CC(=O)N1N=C(c2ccccc2)OC1(C)CC(=O)Nc1ccccc1 (configuration not stated),13%
O=C(COC(=O)c1ccc(S(=O)(=O)Nc2ccccc2)cc1)NCCC1=CCCCC1,14%
CC(NC(=O)c1ccc(S(C)(=O)=O)cc1)c1cccc2ccccc12 (configuration not stated),-18%
Cc1ccc(NC(=O)C2(S(=O)(=O)c3ccc(C)cc3)CC2)cc1,-13%
COc1ccc(C(=O)n2cnc(N)n2)cc1,-10%
CCOc1ccc(/C=C/C(=O)c2ccc(-c3ccccc3)cc2)cc1,-17%
O=C1NC(=O)C(Cc2ccc(Cl)cc2)(c2ccccc2)N1 (configuration not stated),4%
C[C@@H](NC(=O)[C@@H]1Cc2ccccc2CN1C(=O)OC(C)(C)C)C(=O)NC1CCCCC1,17%
COCCN(C(=O)CSc1ncccn1)c1c(N)n(Cc2ccccc2)c(=O)[nH]c1=O,-3%
C/C(=N\Nc1ccc(Cl)c(C(=O)O)c1)c1ccc(Br)s1,-22%
CC(=O)Nc1ccc(NC(=O)CSc2ncc(C(=O)Nc3ccc(F)cc3)c(=O)n2C)cc1,-2%
Cc1ccc(NC(=O)CN(C)C(=O)c2ccc(-n3cncn3)c([N+](=O)[O-])c2)cc1,22%
CCC(C)NS(=O)(=O)c1ccc(NC(=O)C2CCN(C(=O)c3ccco3)CC2)cc1 (configuration not stated),-8%
CCn1c(SCc2nc3ccccc3[nH]2)nnc1-c1ccccc1OC,-8%
O=C1C(=O)N(CCN2CCOCC2)C(c2ccccn2)/C1=C(/O)c1ccc(F)cc1 (configuration not stated),-9%
CCOC(=O)Cc1ccc(NC(=O)Nc2nnc(N3CCCCC3C)s2)cc1 (configuration not stated),8%
CC(=O)Nc1cc[n+](CC(=O)c2ccc(Cl)cc2)cc1,-15%
N#Cc1c(NC(=O)COC(=O)C2CC3C=CC2C3)oc(-c2ccccc2)c1-c1ccccc1 (configuration not stated),-13%
CCSc1cnn(-c2ccccc2)c(=O)c1SCC,-11%
Cc1cc2oc(=O)c(CC(=O)NCCc3ccccc3)c(C)c2c2occ(C(C)(C)C)c12,6%

The list goes on:
SMILES,VDR inhibitor
OC(c1ccccc1)C(O)C(c1ccccc1)N1CCCCC1 (configuration not stated),11%
COc1cc(OC)cc(C(=O)Oc2c(Sc3ccccc3)c(C)nn2C(C)(C)C)c1,1%
COC(=O)c1ccc2c(C)c(C3(O)CCCCC3)[nH]c2c1,6%
CCC1Nc2ncnc(N3CCN(c4ccccc4)CC3)c2N(Cc2ccc(C)cc2)C1=O (configuration not stated),-5%
CC(=O)c1cc(-c2ccc(F)cc2)n(CCC(=O)Nc2nc3c(C)cccc3s2)c1C,11%
Cn1ccnc1SCC(=O)Nc1cc(S(=O)(=O)N2CCOCC2)ccc1Cl,2%
Cc1ccc(C)n1-c1nnc(N2CCCC(C(=O)Nc3ccccc3Br)C2)s1 (configuration not stated),12%
Cc1cccc(NC(=O)CSCC(=O)N(C)Cc2ccc3c(c2)OCCO3)c1,14%
Cc1ccc(CNC(=O)c2ccc(N3CCC4(CC3)CC(c3cccc(Br)c3)=NO4)c(NC(=O)c3cccc(C)c3)c2)cc1,-14%
CN(C)c1ccc(C(=O)OCc2ccc(Br)cc2)cc1,1%

For convenience, some entries already given.
SMILES,VDR inhibitor
OC(c1ccccc1)C(O)C(c1ccccc1)N1CCCCC1 (configuration not stated),11%
COc1cc(OC)cc(C(=O)Oc2c(Sc3ccccc3)c(C)nn2C(C)(C)C)c1,1%
COC(=O)c1ccc2c(C)c(C3(O)CCCCC3)[nH]c2c1,6%
CCC1Nc2ncnc(N3CCN(c4ccccc4)CC3)c2N(Cc2ccc(C)cc2)C1=O (configuration not stated),-5%
CC(=O)c1cc(-c2ccc(F)cc2)n(CCC(=O)Nc2nc3c(C)cccc3s2)c1C,11%
Cn1ccnc1SCC(=O)Nc1cc(S(=O)(=O)N2CCOCC2)ccc1Cl,2%

New compounds follow.
SMILES,VDR inhibitor
COC(=O)c1ccccc1NC(=O)NCc1ccccn1,-17%
CC(C)CC1NC(C(=O)O)Cc2c1[nH]c1ccccc21 (configuration not stated),19%
CCOc1ccc(CCNC(=O)C2CCCN(S(C)(=O)=O)C2)cc1OCC (configuration not stated),0%
CCCC(=O)N1CCN(c2ccc(NC(=O)c3ccc([N+](=O)[O-])o3)cc2Cl)CC1,-9%
Fc1ccc(C(c2ccc(F)cc2)N2CCN(CC=Cc3ccccc3)CC2)cc1,-10%
CCOC(=O)CCc1c(C)nc(-n2[nH]c(C)c(CCO)c2=O)[nH]c1=O,1%
COc1ccccc1CNC(=O)CCS(=O)(=O)c1cccc2nonc12,7%
CC1(C)CC(NC(=O)c2ccc(Br)o2)CC(C)(C)N1,25%
O=C(NC1CCN(Cc2ccccc2)CC1)C1CCN(S(=O)(=O)c2cccc([N+](=O)[O-])c2)CC1,-1%
C[C@H](CO)N1C[C@H](C)[C@@H](CN(C)Cc2ccncc2)Oc2c(NS(=O)(=O)c3ccccc3)cccc2C1=O,6%
CCOC(=O)c1cccc(NC(=O)CCS(=O)(=O)c2cccc3nsnc23)c1,18%
CC(C)(C)NC(=O)c1ccc(NC(=O)C2COc3ccccc3O2)cc1 (configuration not stated),8%
O=C(Nc1cc(-c2ccccc2)nn1C1CCCCC1)c1ccc(Cl)cc1,-4%
CCOC(=O)N1CCN(C(=O)CSc2nc3c(c(=O)n2-c2ccccc2OC)SCC3)CC1,-6%
NC(=O)c1ccc(NC(=O)CCc2nc3sc4c(c3c(=O)[nH]2)CCCC4)cc1,5%
Cc1c2c(cc3c1[nH]c1ccccc13)C=NCC2,18%
CCC(O)CNC(=O)CCc1nnc(C2(c3ccc(Cl)cc3)CCC2)o1 (configuration not stated),-9%
CCCn1c(=O)c(F)cn(Cc2ccc(OC)c([N+](=O)[O-])c2)c1=O,6%
Cc1c(NC(=O)CC2CC(C)OC2=O)c(=O)n(-c2ccccc2)n1C (configuration not stated),-7%
CC(NC(=O)CCC(=O)c1ccc(F)cc1)C1CC2CCC1C2 (configuration not stated),7%
Cc1ccc(NC(=O)C(=O)c2c(-c3ccccc3)cc3ccccn23)cc1S(=O)(=O)N1CCOCC1,10%
Cc1cc(C(=O)NCc2ccccc2F)c2ccccc2n1,3%
CN(C(=O)COC(=O)c1nc(-c2ccccc2)n(-c2ccccc2)n1)C1CCS(=O)(=O)C1 (configuration not stated),9%
CC1CCCCC1NC(=O)CCS(=O)(=O)c1ccc2c(c1)NC(=O)CS2 (configuration not stated),?
C=CCn1c(COc2ccc(Cl)cc2)nnc1SCC(=O)NCC(=O)OCC,-2%
CCc1ccc(NCc2cc3cc4c(cc3n(CC(=O)Nc3ccc(C)cc3)c2=O)OCO4)cc1,5%
COc1cc(OC)c(N(C)C(=O)c2cn(C)c(=O)c3cc(OC)c(OC)cc23)cc1Cl,-21%&-6%
COc1ccc(N(C)S(=O)(=O)c2cccc(C(=O)N3CCN(c4cccc(C)c4C)CC3)c2)cc1,-12%
CCOC(=O)C1CCN(C(=O)COC(=O)CSc2ccc(C(N)=O)cc2[N+](=O)[O-])CC1,13%
CN1CCN(c2ncc3nc(-c4ccc(Cl)cc4)c(=O)n(Cc4cccs4)c3n2)CC1,-9%
O=C(COC(=O)c1ccc(O)cc1)Nc1ccc2c(c1)OCO2,2%
NC(=O)C1CCCN(C(=O)c2cccc(S(=O)(=O)N(Cc3ccccc3)c3ccccc3)c2)C1 (configuration not stated),1%
O=C(NCc1ccccc1)c1cc(=O)[nH]c2ccccc12,5%
O=C1/C(=C/c2cccs2)N=C(c2cccs2)N1Nc1ccccc1,-10%
COCCCNC(NC(=O)c1ccc(OC)cc1)C(Cl)(Cl)Cl (configuration not stated),-19%
COCCNc1nnc(SCC(=O)Nc2nnc(-c3ccccc3)o2)s1,-2%
Cc1ccc(-c2nc(NCC3CCCO3)sc2C)cc1 (configuration not stated),-9%
COc1ccc(NC(=O)CCNC(=O)c2ccc([N+](=O)[O-])cc2)cc1S(=O)(=O)N1CCCCC1,-1%
Cc1cc(-c2csc(N)n2)c(C)n1Cc1ccco1,-26%
CCOC(=O)c1ccc(NC(=O)NCc2ccccn2)cc1,13%
Cc1ccc(S(=O)(=O)N(C)CC(=O)N2CCc3ccccc32)cc1,-2%
CCOC(=O)c1cnn(-c2nc(CC)nc3sc4c(c23)CCC4)c1N,-1%
CC(C)(C)C1(O)CC(C(F)(F)F)=NN1C(=O)CCCc1ccccc1 (configuration not stated),15%
COc1ccc(N2CCN(C(CNS(C)(=O)=O)c3ccco3)CC2)cc1 (configuration not stated),14%
O=C(CSc1ccccc1F)NC(=O)NCc1ccco1,-14%
CC1CCCN(S(=O)(=O)c2ccc(NC(=O)CN3C(=O)NC(C)(c4ccccc4)C3=O)cc2)C1 (configuration not stated),-3%
COc1cc2[nH]c(=O)n(Cc3ccc(C(=O)NCCCN4CCN(C)CC4)cc3)c(=O)c2cc1OC,-6%
COc1ccc(NC(=O)COC(=O)c2ccc(N3CCCC3=O)cc2)cc1,-17%
COc1ccc(-n2ccnc(NCc3ccc(Cl)cc3)c2=O)cc1,17%
CCCCN1CC(=O)N2[C@H](c3ccc(Cl)cc3)[C@@H]3C(=O)N(CC)C(=O)[C@@H]3[C@]2(Cc2ccccc2)C1=O,3%

(continued)
SMILES,VDR inhibitor
COc1ccc(OCC(=O)Nc2cccc(C(C)=O)c2)cc1,-3%
O=C(N/N=C/c1cccnc1)c1cc(-c2ccccc2)nc2ccccc12,-2%
Cc1ccccc1NC(=O)N1CCC(CN2CCCC2)CC1,8%
NC(=O)CCCn1c(C(=O)c2cc(Cl)c(N)c(Cl)c2)c2ccc(C(F)(F)F)cc2[n+]1[O-],-24%
COc1ccc(CNc2oc(-c3ccc(COc4ccc(OC)cc4)o3)nc2C#N)cc1,19%
Cc1c(NC(=O)CCN2C(=O)c3ccccc3C2=O)c(=O)n(-c2ccccc2)n1C,16%

High-throughput results deposited in PubChem BioAssay by National Center for Advancing Translational Sciences (NCATS).
